Vaccinia inh: Vaccinia orthopox stage-specific inhibition | activity change (mCherry), % (test concentration not listed) | Vaccinia-infected cells, mCherry/Venus stage reporter fluorescence; hits give low values; some inactives read as strong as hits | 89,000 tested, 0.01% active;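 active = mCherry past -33% and 40 or more points under the early reporter, replicates agreeing; inconclusive = past -33% without that gap or agreement; tested in A549 cells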;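 also: scaled between vehicle wells and reference inhibitor wells; 23 nL library stock went into each well; one replicate is shown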
Vaccinia inh Venus: recorded beside Vaccinia inh, whose call it bears; activity change (Venus), %; measured here: Venus reporter, other viral stage;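 negative = less Venus signal; first of two replicates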
Starred values were filed as active, the others as inactive; ? = inconclusive; nt = not tested or not shown; & = joins results of further samples. An excerpt (hit frequency here may not be typical).

#	SMILES	Vaccinia inh	Vaccinia inh Venus
1	O=C(NCC1CC1)[C@@H]1[C@@H](CO)[C@@H]2Cn3c(ccc(-c4ccccc4)c3=O)[C@H]1N2CC1CC1	7.2	6.0
2	C[C@H](CO)N1C[C@H](C)[C@H](CN(C)C(=O)NC2CCCCC2)Oc2ccc(NC(=O)Nc3ccccc3)cc2CC1=O	9.8	11.0
3	CCCC#Cc1ccc(CC[C@H]2O[C@H]3CC[C@@H](CO)O[C@H]3C[C@H]2NS(=O)(=O)c2ccccc2)cc1	-17.4	-10.1
4	COc1ccc(-c2ccc([C@@H]3[C@@H](C#N)N[C@@H]3CO)cc2)cc1	-0.1	6.1
5	CCC(=O)N1[C@H](CO)[C@H](c2ccccc2)C12CN(C(=O)c1ccc(F)cc1)C2	3.8	7.2
6	C[C@@H]1CCCCO[C@@H](CN(C)C(=O)Nc2ccc(C(F)(F)F)cc2)[C@H](C)CN([C@H](C)CO)C(=O)c2cc(NC(=O)Nc3ccc(F)cc3)ccc2O1	-30.8	-22.7
7	COc1cccc(-c2ccc3n(c2=O)C[C@@H]2[C@@H](CO)[C@H](C(=O)N(C)C)N(C(=O)C4CCCC4)[C@H]32)c1	7.6	-0.3
8	CCCNC(=O)Nc1ccc2c(c1)C(=O)N(C)[C@H]1CC[C@@H](CC(=O)OC)O[C@@H]1CO2	15.2	6.1
9	C[C@@H]1CCCCO[C@@H](CN(C)C(=O)Nc2ccc(F)cc2)[C@H](C)CN([C@@H](C)CO)C(=O)c2cc(NC(=O)Nc3cccc4ccccc34)ccc2O1	4.1	-0.4
10	O=C(C[C@@H]1CC[C@@H](NS(=O)(=O)c2ccc(F)cc2)[C@H](CO)O1)NCCc1ccncc1	4.4	13.0
11	Cc1ccc(S(=O)(=O)N(C)C[C@@H]2OCCCC[C@H](C)Oc3ccc(NC(=O)c4ccccc4)cc3C(=O)N([C@@H](C)CO)C[C@H]2C)cc1	-9.1	-8.4
12	C[C@@H]1CN([C@H](C)CO)C(=O)c2cc(C#Cc3ccc(F)cc3)cnc2O[C@H]1CN(C)S(C)(=O)=O	13.9	0.4
13	C[C@H]1CN([C@@H](C)CO)C(=O)c2c(c3ccccc3n2C)-c2ccccc2CO[C@H]1CN(C)S(=O)(=O)c1cn(C)cn1	8.8	2.4
14	CO[C@@H](CN(C)C(=O)c1cc(Cl)cc(Cl)c1)[C@@H](C)CN(C(=O)Nc1ccc(F)cc1)[C@@H](C)CO	-22.7	-16.1
15	CCCN(C[C@H]1N[C@H](CO)[C@@H]1c1ccccc1)C(=O)COC	1.4	1.0
16	CN1C[C@@H]2[C@H](c3ccccc31)[C@@H](CO)N2C(=O)Nc1ccc(F)cc1	-5.4	-2.8
17	C[C@H]1CCCCO[C@H](CN(C)C(=O)Nc2ccc3c(c2)OCO3)[C@@H](C)CN([C@@H](C)CO)C(=O)c2cc(NC(=O)Nc3ccc(C(F)(F)F)cc3)ccc2O1	-11.9	5.8
18	O=C(C[C@@H]1CC[C@H]2[C@@H](COC[C@@H](O)CN2C(=O)Nc2cccc(Cl)c2)O1)NCCCN1CCOCC1	1.2	3.5
19	C[C@@H]1CN([C@H](C)CO)S(=O)(=O)c2ccc(C#C[C@@H](C)O)cc2O[C@H]1CN(C)C(=O)Nc1ccccc1	5.7	9.2
20	CCC(=O)N1[C@@H](CO)[C@@H](c2ccc(-c3cccc(OC)c3)cc2)C12CN(C(C)=O)C2	8.7	11.9
21	C[C@@H]1CCCCO[C@@H](CN(C)C)[C@@H](C)CN([C@H](C)CO)C(=O)c2cc(NC(=O)Nc3ccc(F)cc3)ccc2O1	3.4	-4.0
22	C[C@H]1CN([C@@H](C)CO)C(=O)c2cccc(NS(C)(=O)=O)c2O[C@H]1CN(C)CC1CCCCC1	-3.1	-12.1
23	C[C@@H]1CN([C@@H](C)CO)C(=O)c2cc(NS(C)(=O)=O)ccc2O[C@H]1CN(C)C(=O)Nc1cccc2ccccc12	32.2	20.1
24	C[C@@H]1CCCCO[C@H](CN(C)Cc2ccccc2)[C@@H](C)CN([C@@H](C)CO)C(=O)c2cc(NC(=O)Nc3ccc(F)cc3)ccc2O1	?	nt
25	C[C@H]1CN([C@@H](C)CO)C(=O)c2cc(-c3ccc(F)cc3)cnc2O[C@@H]1CN(C)C(=O)CN(C)C	15.0	7.7
26	CCCC(=O)Nc1ccc2c(c1)OC[C@H](C)N(CCC(F)(F)F)C[C@H](C)[C@@H](OC)CN(C)C2=O	6.7	5.9
27	Cc1noc(C)c1NC(=O)Nc1ccc2c(c1)C(=O)N([C@@H](C)CO)C[C@H](C)[C@@H](CN(C)C(=O)CCCN(C)C)OCCCC[C@H](C)O2	-0.9	-7.1
28	C/C=C/c1ccc([C@H]2[C@@H](CO)N[C@@H]2CNC(=O)C2CCCC2)cc1	-12.2	-1.3
29	O=C(Nc1ccccc1F)N1CC(=O)N2[C@H](CO)[C@@H](c3ccc(-c4ccccc4)cc3)[C@H]2C1	?	nt
30	CCC(=O)N(C)C[C@@H]1Oc2cc(-c3cccnc3)ccc2S(=O)(=O)N([C@H](C)CO)C[C@@H]1C	21.7	10.8

Remaining list, next part.
#	SMILES	Vaccinia inh	Vaccinia inh Venus
31	C[C@@H]1CN([C@@H](C)CO)S(=O)(=O)c2ccc(C#Cc3ccccn3)cc2O[C@H]1CN(C)C(=O)C1CC1	-21.7	-11.2
32	C[C@@H]1CCCCO[C@H](CN(C)Cc2ccc3c(c2)OCO3)[C@@H](C)CN([C@@H](C)CO)C(=O)c2cc(NC(=O)c3ccncc3)ccc2O1	19.5	4.7
33	C[C@@H]1CN([C@@H](C)CO)C(=O)Cc2cc(NC(=O)C3CCCCC3)ccc2O[C@H]1CN(C)Cc1ccc(Oc2ccccc2)cc1	?	nt
34	C[C@H](CO)N1C[C@H](C)[C@@H](CN(C)Cc2cccc(F)c2)Oc2ncc(Br)cc2C1=O	8.3	10.4
35	COc1ccc2c3c([nH]c2c1)[C@@H](CO)N(C)CC31CCN(S(=O)(=O)c2cn(C)cn2)CC1	16.0	11.8
36	C[C@H]1CN([C@@H](C)CO)C(=O)Cc2cc(NC(=O)C3CCCCC3)ccc2O[C@H]1CN(C)Cc1ccc(C(=O)O)cc1	1.5	3.0
37	CCC(=O)N[C@@H]1CC[C@@H](CC(=O)OC)O[C@H]1CO	-1.1	-11.0
38	Cc1noc(C)c1S(=O)(=O)Nc1ccc2c(c1)C(=O)N([C@H](C)CO)C[C@@H](C)[C@@H](CN(C)C(=O)Nc1ccc3c(c1)OCO3)O2	-1.0	-1.0
39	O=C(NCC[C@H]1CC[C@@H](NC(=O)c2cccnc2)[C@@H](CO)O1)Nc1ccc(Cl)cc1	7.8	10.0
40	CC(C)NC(=O)N1CCCCN2[C@H](CO)[C@H](c3ccc(C#C[C@@H](C)O)cc3)[C@@H]2C1	41.7	17.6
41	C[C@@H]1CN([C@@H](C)CO)C(=O)c2cc(NC(=O)Nc3ccc4c(c3)OCO4)ccc2O[C@@H](C)CCCCO[C@H]1CN(C)C(=O)Nc1cccc2ccccc12	43.3	17.0
42	C[C@H]1CN([C@@H](C)CO)C(=O)c2cc(C#CC3(O)CCCC3)cnc2O[C@@H]1CN(C)C(=O)Nc1ccc2c(c1)OCO2	-6.2	-7.5
43	C[C@@H]1CN([C@H](C)CO)C(=O)c2cc(-c3ccncc3)cnc2O[C@H]1CN(C)C(=O)C1CCCCC1	18.4	13.3
44	COc1ccccc1-c1ccc([C@@H]2[C@@H](C#N)N(C(=O)c3cccnc3)[C@@H]2CO)cc1	-12.7	-3.8
45	O=C(C[C@H]1CC[C@@H]2[C@H](COC[C@H](O)CN2Cc2ccccc2)O1)N1CCOCC1	6.5	-4.1
46	CCCC#Cc1ccc2c(c1)O[C@H](CN(C)C(=O)C1CCC1)[C@@H](C)CN([C@H](C)CO)S2(=O)=O	-14.8	-12.1
47	C[C@H]1CN([C@@H](C)CO)S(=O)(=O)c2ccc(C#CCN(C)C)cc2O[C@@H]1CN(C)Cc1ccc(F)cc1	?	nt
48	C[C@H](CO)N1C[C@H](C)[C@H](CN(C)Cc2ccc(Cl)c(Cl)c2)Oc2c(NS(=O)(=O)c3cn(C)cn3)cccc2C1=O	-3.3	0.2
49	O=C(C[C@@H]1CC[C@H](NC(=O)Nc2cccc(F)c2)[C@@H](CO)O1)NCC1CC1	3.5	-3.7
50	COC(=O)C[C@@H]1C[C@H]2c3cc(NC(=O)C4CCC4)ccc3O[C@H]2[C@@H](CO)O1	0.2	-0.8
51	CCN1[C@@H]2c3ccc(-c4ccccc4F)c(=O)n3C[C@H]1[C@H](CO)[C@H]2C(=O)N1CCOCC1	8.7	8.0
52	C[C@@H]1CCCCO[C@H](CN(C)C(=O)c2ccncc2)[C@H](C)CN([C@@H](C)CO)C(=O)c2cc(NC(=O)c3ccccc3)ccc2O1	15.9&17.3	-6.3&12.4
53	C[C@@H]1CN([C@@H](C)CO)C(=O)c2cccc(NS(=O)(=O)c3ccc(Cl)cc3)c2O[C@@H]1CN(C)S(=O)(=O)c1ccc(Cl)cc1	-5.9	-4.9
54	CC(=O)N(C)C[C@@H]1Oc2ncc(C#Cc3ccccn3)cc2C(=O)N([C@@H](C)CO)C[C@@H]1C	7.2	9.7
55	CO[C@H]1CN(C)C(=O)c2cc(NC(=O)c3ccccc3)ccc2OC[C@H](C)N(C(=O)CN(C)C)C[C@@H]1C	5.3	-2.6
56	C[C@@H]1CN([C@@H](C)CO)C(=O)c2cc(NC(=O)NC3CCCCC3)ccc2O[C@@H](C)CCCCO[C@@H]1CN(C)C(=O)NC1CCCCC1	-5.5	-1.2
57	COc1ccc(CN(C)C[C@@H]2Oc3c(NC(=O)NC4CCCCC4)cccc3C(=O)N([C@@H](C)CO)C[C@@H]2C)cc1	-25.7	-9.6
58	C[C@@H]1CN([C@@H](C)CO)S(=O)(=O)c2ccc(-c3cccc(C(=O)N(C)C)c3)cc2O[C@@H]1CN(C)C(=O)Nc1ccccc1	-4.9	-9.6
59	COc1ccc(S(=O)(=O)N(C)C[C@H]2Oc3c(NC(=O)Nc4ccc(F)cc4)cccc3C(=O)N([C@@H](C)CO)C[C@@H]2C)cc1	-15.6	-12.2
60	COCC(=O)Nc1ccc2c(c1)[C@H]1C[C@H](CC(=O)N[C@H](C)c3ccccc3)O[C@H](CO)[C@H]1O2	1.5	4.9

Other records.
cpd	SMILES	Vaccinia inh	Vaccinia inh Venus
61	C[C@H]1CN([C@@H](C)CO)C(=O)c2cccc(NC(=O)C3CC3)c2O[C@H]1CN(C)Cc1ccc(C(F)(F)F)cc1	14.7	22.2
62	C[C@@H]1CN([C@@H](C)CO)C(=O)Cc2cc(NS(C)(=O)=O)ccc2O[C@H]1CN(C)Cc1ccc(C(=O)O)cc1	7.6	10.4
63	Cc1ccc(S(=O)(=O)N(C)C[C@@H]2OCCCC[C@@H](C)Oc3ccc(NC(=O)CCCN(C)C)cc3C(=O)N([C@@H](C)CO)C[C@H]2C)cc1	24.3	3.7
64	O=C(C[C@@H]1CC[C@H](NS(=O)(=O)c2ccccc2)[C@@H](CO)O1)N1CCN(c2ccccc2)CC1	16.9	8.3
65	CC(C)COC(=O)N(C)C[C@@H]1OCc2ccccc2-c2c(n(C)c3ccccc23)C(=O)N([C@H](C)CO)C[C@@H]1C	?	nt
66	O=C(C1CC1)N1[C@@H](CO)[C@@H]2c3ccccc3N(S(=O)(=O)c3ccc(F)cc3)C[C@@H]21	9.9	5.2
67	C[C@@H]1CN([C@@H](C)CO)C(=O)c2cc(-c3cccnc3)cnc2O[C@H]1CN(C)C(=O)Cc1cccnc1	4.3	4.3
68	CCCC(=O)Nc1ccc2c(c1)OC[C@H](C)N(C(C)=O)C[C@H](C)[C@H](OC)CN(C)C2=O	11.3	9.6
69	CCCNC(=O)Nc1ccc2c(c1)C(=O)N(C)C[C@H](OC)[C@@H](C)CN(S(C)(=O)=O)[C@@H](C)CO2	17.1	14.9
70	COc1ccc(-c2ccc([C@H]3[C@H]4CN(S(=O)(=O)c5cccs5)CCCCN4[C@H]3CO)cc2)cc1	-2.3	-14.4
71	COc1ccc(-c2cnc3c(c2)C(=O)N([C@H](C)CO)C[C@H](C)[C@H](CN(C)S(=O)(=O)c2ccc(C#N)cc2)O3)cc1	-13.2	-11.9
72	CN(C)CC(=O)Nc1ccc2c(c1)[C@@H]1C[C@H](CC(=O)NCc3ccc(Cl)cc3)O[C@H](CO)[C@@H]1O2	-1.8	5.5

Looked up one by one from the entries so far (five):
cpd	SMILES	Vaccinia inh	Vaccinia inh Venus
71	COc1ccc(-c2cnc3c(c2)C(=O)N([C@H](C)CO)C[C@H](C)[C@H](CN(C)S(=O)(=O)c2ccc(C#N)cc2)O3)cc1	-13.2	-11.9
70	COc1ccc(-c2ccc([C@H]3[C@H]4CN(S(=O)(=O)c5cccs5)CCCCN4[C@H]3CO)cc2)cc1	-2.3	-14.4
67	C[C@@H]1CN([C@@H](C)CO)C(=O)c2cc(-c3cccnc3)cnc2O[C@H]1CN(C)C(=O)Cc1cccnc1	4.3	4.3
68	CCCC(=O)Nc1ccc2c(c1)OC[C@H](C)N(C(C)=O)C[C@H](C)[C@H](OC)CN(C)C2=O	11.3	9.6
62	C[C@@H]1CN([C@@H](C)CO)C(=O)Cc2cc(NS(C)(=O)=O)ccc2O[C@H]1CN(C)Cc1ccc(C(=O)O)cc1	7.6	10.4

(further entries)
cpd	SMILES	Vaccinia inh	Vaccinia inh Venus
73	COc1ccc(NC(=O)N(C)C[C@H]2Oc3cc(C#CCN(C)C)ccc3S(=O)(=O)N([C@@H](C)CO)C[C@H]2C)cc1	11.6	1.3
74	Cc1ccc(S(=O)(=O)N2CC[C@@H]3[C@@H](CO)N(C)c4ccc(-c5ccc(C#N)cc5)cc4[C@@H]32)cc1	-32.1	-19.0
75	CC=Cc1ccc2n(c1=O)C[C@@H]1[C@@H](CO)[C@H](C(=O)N(C)C)[C@H]2N1C (mixture of isomers)	11.3	3.7
76	O=C(N[C@@H]1CC[C@@H](CCNC(=O)C2CCCC2)O[C@@H]1CO)c1ccccn1	1.1	3.7
77	C[C@@H]1CN([C@@H](C)CO)C(=O)c2cccc(NC(=O)CCCCCC(=O)Nc3ccccc3N)c2O[C@@H]1CN(C)S(=O)(=O)c1cccs1	10.9	8.7
78	CC(=O)N(C)C[C@@H]1Oc2ncc(/C=C/c3ccccc3)cc2C(=O)N([C@H](C)CO)C[C@H]1C	-13.6	10.5

Screening results from PubChem BioAssay.
